Assay outcomes as filed in PubChem BioAssay.
MITF inhib: inhibitors of MITF, primary screen, MITF inhibitor project, cell-based, luminescence. TRPM1 promoter luciferase, 24 h. inhibition, % (test concentration not listed). 0.28% of 37,000 active;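 active means most replicates at 85% or more, or half of them and the mean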;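 further: human melanocyte line stably carrying TRPM1 promoter luciferase reporter; 0% = vehicle wells and 100% = a positive control; the first replicate is given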
PD-1 reverse act: activators reversing PD-1 mediated T-cell inhibition, primary screen, luminescence, primary human CD4 T cells, PD-L1 beads; CellTiter-Glo 96 h; activation, % (test concentration not listed); 29,000 tested, under 10 active; AID 2316, 2010;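 active means replicate mean of 50% or more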;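 further: 0% = median vehicle wells and 100% = positive control; 100 nL library stock added to about 50 µL; numbers are from one replicate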
YB-1 expr inh: inhibitors of YB-1 gene expression, primary screen, cell-based, fluorescence; U2OS, qRT-PCR YB-1 vs CDIP delta delta Cp, 16 h; hits give high values; zero = DMSO, each unit about twofold; delta delta Cp (YB-1 minus CDIP) (no concentration beside the values); 0.37% of 30,000 active; AID 434959, 2010;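 active means delta delta Cp rounded down to an integer at or above 3, about 3 SD of DMSO wells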;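 further: higher means less YB-1 transcript or more CDIP transcript relative to DMSO; stock transfer was 100 nL into about 100 µL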
Shh pathway inh: Hedgehog pathway signaling inhibitors, primary screen, luminescence, Shh-LIGHT2 cells, Gli-luciferase; Shh-LIGHT2 Gli-luciferase reporter, 30 h; inhibition, % (concentration not given with the values); 2.1% of 22,000 active; AID 2313, 2010;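 active means replicate mean of 65% or more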;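 further: pathway switched on by Shh-conditioned medium diluted 1 in 25 in low serum; 100 nL library stock added to about 40 µL; 0% = median of neutral wells and 100% = positive control level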
* marks the source's active call; other numbers are inactive results; · = no result given. This is a subset, so the mix of outcomes need not match the whole.

molecule	MITF inhib	PD-1 reverse act	YB-1 expr inh	Shh pathway inh
O=C(NC(=S)NC12CC3CC(CC(C3)C1)C2)c1ccccc1	-19.5	-2.3	-0.00112	-102.8
C[C@@H]1CN([C@H](C)CO)C(=O)Cc2cc(NC(=O)CCN3CCOCC3)ccc2O[C@H]1CN(C)Cc1ccc(C(=O)Nc2ccccc2N)cc1	-5.2	-0.1	-0.171	·
COc1ccc(-c2nc3ccccc3s2)cc1NC(=O)COc1ccc(Br)cc1	-24.3	0.0	·	·
COc1cc(C)c(C)cc1S(=O)(=O)n1c(C)nc2ccccc21	-7.0	0.0	·	·
O=C(NCCN1CCOCC1)c1cc(-n2cnnc2)ccc1Cl	-3.1	2.8	·	·
O=C(NCc1ccco1)c1ccc2c(c1)C(=O)N(CC1CCCO1)C2=O (centres undefined)	-7.9	1.8	·	·
Cc1ccc(S(=O)(=O)n2nc(-c3ccc(Cl)cc3)nc2NCc2ccco2)cc1	-59.6	-0.3	·	·
CCOc1ccc2nc(SCC(=O)Nc3c(C)n(C)n(-c4ccccc4)c3=O)sc2c1	6.1	1.2	·	·
C[C@H](CO)N1C[C@H](C)[C@H](CN(C)C(=O)Nc2ccc(C(F)(F)F)cc2)Oc2ccc(NS(=O)(=O)c3ccc(F)cc3)cc2CC1=O	4.5	·	-0.0173	2.4
Cc1ccc(S(=O)(=O)N(C)C[C@@H]2Oc3ccc(NC(=O)C4CC4)cc3C(=O)N([C@@H](C)CO)C[C@H]2C)cc1	-10.3	-1.3	0.218	28.5
COc1ccc(CN(C)C[C@@H]2Oc3ccc(NC(=O)Nc4ccccc4)cc3C(=O)N([C@@H](C)CO)C[C@@H]2C)cc1	-12.0	-1.4	-0.176	51.5
CNC[C@H]1Oc2c(NS(=O)(=O)c3cccs3)cccc2C(=O)N([C@H](C)CO)C[C@@H]1C	4.9	2.4	-0.0201	-20.0
Cc1noc(C)c1S(=O)(=O)Nc1ccc2c(c1)C(=O)N([C@H](C)CO)C[C@H](C)[C@@H](CN(C)C(=O)Nc1cccc3ccccc13)OCCCC[C@@H](C)O2	16.7	·	-0.183	11.6
C[C@H]1CN([C@@H](C)CO)C(=O)c2cc(NC(=O)Cn3cnnn3)ccc2O[C@H]1CN(C)S(=O)(=O)c1cccs1	-19.6	1.1	0.885	-3.6
Cc1noc(C)c1NC(=O)Nc1ccc2c(c1)CC(=O)N([C@H](C)CO)C[C@@H](C)[C@H](CN(C)Cc1ccc(-c3ccccc3)cc1)O2	-0.7	-1.5	0.267	-3.0
COc1cc(-c2oc3cc(O)cc(O)c3c(=O)c2O)ccc1O	-91.2	1.0	0.617	-1.9
O=C1c2ccccc2C(=O)N1CCc1nc(-c2cccc([N+](=O)[O-])c2)no1	-39.0	-1.6	·	·
COC(=O)c1ccc(NC(=O)CN(c2ccc(F)cc2)S(C)(=O)=O)cc1	-31.9	0.7	·	·
O=C(NCCc1c[nH]c2ccccc12)NC1CCCCC1	-31.5	-1.8	·	·
C[C@@H]1CN([C@H](C)CO)C(=O)c2cc(NC(=O)Nc3ccc4c(c3)OCO4)ccc2O[C@@H]1CN(C)S(=O)(=O)c1ccc(F)cc1	17.1	0.2	-0.0833	·
C[C@@H]1CN([C@H](C)CO)C(=O)c2cc(NS(=O)(=O)c3ccc(Cl)cc3)ccc2O[C@@H]1CN(C)Cc1ccc(C(=O)O)cc1	2.0	2.1	0.226	·
C[C@@H]1CN([C@H](C)CO)C(=O)c2cc(NS(C)(=O)=O)ccc2O[C@@H]1CN(C)Cc1ccncc1	-7.7	·	-0.242	1.1
COC(=O)c1ccccc1NC(=O)Cn1c(SC)c(F)cnc1=O	8.7	-3.3	·	·
C[C@H]1CN([C@@H](C)CO)C(=O)Cc2cc(NC(=O)CCC(F)(F)F)ccc2O[C@H]1CN(C)Cc1ccc(-c2ccccc2)cc1	-1.5	·	0.0327	16.1
COc1ccc([C@H]2COc3c(ccc(O)c3OC)C2)c(OC)c1O	-7.8	·	-0.277	-17.7
C[C@@H]1CN([C@H](C)CO)C(=O)c2cccc(NC(=O)c3nc4ccccc4s3)c2O[C@H]1CN(C)C(=O)Nc1cccc2ccccc12	10.1	·	-0.271	-15.7
C[C@H](CO)N1C[C@H](C)[C@@H](CN(C)Cc2ccc(Cl)c(Cl)c2)Oc2ccc(NC(=O)Nc3ccc(C(F)(F)F)cc3)cc2C1=O	-2.6	·	0.233	-15.1
Cc1ccc(NC(=O)C(C)Oc2ccc(Cl)cc2Cl)c([N+](=O)[O-])c1 (centres undefined)	-1.3	1.5	·	·
C[C@H]1CN([C@@H](C)CO)C(=O)Cc2cc(NC(=O)Cc3cn(C)c4ccccc34)ccc2O[C@@H]1CN(C)Cc1ccncc1	-6.8	0.8	0.109	-1.2
Cc1noc(C)c1S(=O)(=O)Nc1ccc2c(c1)C(=O)N([C@H](C)CO)C[C@@H](C)[C@@H](CN(C)C(=O)Nc1ccc(C(F)(F)F)cc1)O2	-11.4	·	0.346	-8.4
C[C@@H]1CN([C@H](C)CO)C(=O)Cc2cc(NC(=O)CCCCCC(=O)Nc3ccccc3N)ccc2O[C@@H]1CN(C)C(=O)Nc1ccc2c(c1)OCO2	-9.4	0.1	-0.118	·
CCOC(=O)C(C#N)C(c1cccnc1)c1[nH]c(C)nc1O (centres undefined)	6.1	-5.1	-0.327	-4.4
C[C@H]1CN([C@@H](C)CO)C(=O)c2cc(NC(=O)c3ccncc3)ccc2O[C@H]1CN(C)S(=O)(=O)c1ccccc1	3.3	1.7	-0.127	·
C[C@@H]1CN([C@H](C)CO)C(=O)c2cc(NS(=O)(=O)c3cn(C)cn3)ccc2O[C@@H]1CN(C)C(=O)Nc1ccc(C(F)(F)F)cc1	-11.7	0.7	0.14	10.6
C[C@@H]1CN([C@H](C)CO)C(=O)Cc2cc(NC(=O)Cc3ccccc3)ccc2O[C@@H]1CN(C)Cc1ccc(C(=O)O)cc1	-5.4	0.5	-0.0978	-5.6
C[C@H](CO)N1C[C@H](C)[C@H](CN(C)S(C)(=O)=O)Oc2c(NC(=O)C3CCCCC3)cccc2C1=O	-5.2	2.3	-0.109	18.4
C[C@H]1CN([C@@H](C)CO)C(=O)c2cccc(NC(=O)Nc3ccc4c(c3)OCO4)c2O[C@@H]1CN(C)CC1CCCCC1	-23.7	·	-0.575	-23.3
C[C@@H]1CN([C@H](C)CO)C(=O)c2cccc(NS(=O)(=O)c3cccs3)c2O[C@@H]1CN(C)C(=O)Nc1ccc2c(c1)OCO2	-0.9	2.2	-0.136	-17.5
C[C@H]1CN([C@@H](C)CO)C(=O)Cc2cc(N(C)C)ccc2O[C@H]1CN(C)Cc1ccncc1	-5.6	·	-0.287	-23.7
C[C@H]1CN([C@@H](C)CO)C(=O)c2cc(NS(=O)(=O)c3ccc(F)cc3)ccc2O[C@@H]1CN(C)Cc1ccc(Cl)c(Cl)c1	29.1	-2.1	0.326	19.3
Cc1ccc(S(=O)(=O)Nc2ccc3c(c2)C(=O)N([C@H](C)CO)C[C@H](C)[C@@H](CN(C)Cc2ccc4c(c2)OCO4)OCCCC[C@@H](C)O3)cc1	-6.7	·	-0.243	39.8
O=C(CCC(=O)N(Cc1ccccc1)Cc1ccccc1)Nc1ccc(F)cc1	-11.1	-1.6	0.25	-17.1
COc1ccc(-c2cc(C(F)F)n3ncc(C(=O)Nc4cccc(NC(C)=O)c4)c3n2)cc1	20.4	-0.3	·	·
O=C(c1ccccc1)n1ccc2ccccc21	-35.5	-0.6	-0.115	·
C[C@@H]1CN([C@H](C)CO)C(=O)c2cc(NC(=O)NC3CCCCC3)ccc2O[C@H]1CN(C)S(=O)(=O)c1cn(C)cn1	-2.6	1.2	-0.705	-37.4
COC(=O)c1ccc(C(=O)OC)c(NC(=O)CSc2nc(C)cc(C)n2)c1	6.7	0.6	·	·
Cc1nc(C)c(C(=O)C2C(=O)C(=O)N(CCCN3CCOCC3)C2c2ccccc2)s1 (centres undefined)	0.7	1.5	·	·
CCOc1cc(C(=O)O)cc(I)c1OCC(=O)O	1.5	2.1	·	·
C[C@H](CO)N1C[C@H](C)[C@H](CN(C)Cc2ccncc2)Oc2ccc(NC(=O)C3CCCCC3)cc2CC1=O	-8.1	0.8	0.172	-55.0
C[C@@H]1CCCCO[C@@H](CN(C)C(=O)Nc2ccc(F)cc2)[C@@H](C)CN([C@H](C)CO)C(=O)c2cc(NC(=O)CCCCCC(=O)Nc3ccccc3N)ccc2O1	-16.7	-0.4	-0.351	·

Ordered by molecular weight (descending): some entries from above
molecule	MITF inhib	PD-1 reverse act	YB-1 expr inh	Shh pathway inh
Cc1noc(C)c1S(=O)(=O)Nc1ccc2c(c1)C(=O)N([C@H](C)CO)C[C@@H](C)[C@@H](CN(C)C(=O)Nc1ccc(C(F)(F)F)cc1)O2	-11.4	·	0.346	-8.4
C[C@@H]1CN([C@H](C)CO)C(=O)c2cccc(NC(=O)c3nc4ccccc4s3)c2O[C@H]1CN(C)C(=O)Nc1cccc2ccccc12	10.1	·	-0.271	-15.7
CCOc1cc(C(=O)O)cc(I)c1OCC(=O)O	1.5	2.1	·	·

(listing goes on)
molecule	MITF inhib	PD-1 reverse act	YB-1 expr inh	Shh pathway inh
Cc1c(Br)ccc(NC(=O)CSc2nnc(-c3ccc(Cl)cc3)n2C)c1C	-66.7	1.8	·	·
C=C[C@H]1C(O[C@@H]2O[C@H](CO)[C@@H](O)[C@H](O)[C@H]2O)OC=C2C(=O)N3CCc4c([nH]c5ccccc45)[C@H]3C[C@H]21 (some centres undefined)	12.5	-0.5	1.96	-19.2
C[C@H]1CN([C@@H](C)CO)C(=O)c2cc(NC(=O)Nc3ccc(C(F)(F)F)cc3)ccc2O[C@@H]1CN(C)Cc1ccccc1	8.4	-1.8	0.371	·
Cc1noc(C)c1S(=O)(=O)N(C)C[C@@H]1Oc2ccc(NC(=O)Nc3ccc4c(c3)OCO4)cc2C(=O)N([C@@H](C)CO)C[C@@H]1C	0.5	·	-0.278	-1.2
C[C@@H]1CN([C@@H](C)CO)C(=O)c2cc(NC(=O)Cc3cn(C)c4ccccc34)ccc2O[C@H]1CN(C)S(=O)(=O)c1ccccc1	5.0	-2.3	0.0789	·
C[C@@H]1CN([C@H](C)CO)C(=O)c2cc(NC(=O)Nc3ccc4c(c3)OCO4)ccc2O[C@H]1CN(C)Cc1ccc2c(c1)OCO2	5.6	-0.1	0.35	17.0
CC(C)NC(=O)N(C)C[C@@H]1Oc2ccc(NC(=O)Nc3cccc4ccccc34)cc2CC(=O)N([C@H](C)CO)C[C@H]1C	-2.8	·	0.187	-52.7
Cc1ccc(N(CC(=O)Nc2c(C)n(C)n(-c3ccccc3)c2=O)S(C)(=O)=O)cc1Cl	-0.8	0.7	·	·
O=C(Nc1cccnc1)C1CC(c2cccc(Br)c2)=NO1 (centres undefined)	34.4	0.8	·	·
COc1ccc(S(=O)(=O)N(C)C[C@H]2Oc3ccc(NS(=O)(=O)c4ccc(C)cc4)cc3C(=O)N([C@@H](C)CO)C[C@@H]2C)cc1	3.4	0.5	-0.524	39.5
C[C@H]1CN([C@@H](C)CO)C(=O)c2cccc(NC(=O)c3cnccn3)c2O[C@@H]1CN(C)C(=O)NC1CCCCC1	-11.6	-0.1	0.264	-2.5
COc1ccc(S(=O)(=O)Nc2ccc3c(c2)CC(=O)N([C@@H](C)CO)C[C@@H](C)[C@@H](CN(C)C(=O)Nc2ccc(F)cc2)O3)cc1	-16.4	0.3	-0.0371	-11.8
C[C@H](CO)N1C[C@H](C)[C@H](CN(C)Cc2ccc(C(=O)O)cc2)Oc2ccc(NC(=O)Nc3ccc(C(F)(F)F)cc3)cc2C1=O	-3.9	0.8	0.0595	-46.5
CC(C)NC(=O)Nc1ccc2c(c1)CC(=O)N([C@H](C)CO)C[C@H](C)[C@H](CN(C)Cc1ccc(Oc3ccccc3)cc1)O2	10.9	-2.5	0.214	43.4
C[C@@H]1CCCCO[C@@H](CN(C)Cc2ccc(Cl)c(Cl)c2)[C@@H](C)CN([C@H](C)CO)C(=O)c2cc(NC(=O)c3ccncc3)ccc2O1	16.6	·	-0.383	5.8
C[C@H](CO)N1C[C@H](C)[C@@H](CN(C)Cc2ccc(C(F)(F)F)cc2)Oc2c(NC(=O)Nc3ccc(F)cc3)cccc2C1=O	21.4	-2.1	0.108	-41.4
COc1cc(CNC23CC4CC(CC(C4)C2)C3)ccc1OCC(N)=O	-6.5	0.7	·	·
